T cruzi inh – T. cruzi replication inhibition; inhibition, % (concentration not given with the values); T. cruzi beta-gal in NIH3T3, luminescence, 90 h; 300,000 tested, 1.4% active;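 active = mean inhibition across valid replicates above about 55%, limit read from the data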;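 note: signal also drops with host cell toxicity which is not excluded here; 0% = plate median of DMSO wells and 100% = zero luminescence signal; higher percent means less beta-gal luminescence so fewer parasites; stock transfer was 50 nL into about 50 µL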
Beta apoptosis – beta cell apoptosis inhibition | protection from apoptosis, % (concentration not given with the values) | 300,000 tested, 0.8% active | INS-1E cytokine-induced death, ATP luminescence, 48 h; percent of positive-control rescue, neutral wells zero | AID 435005;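 active = all replicates at 75% or more, or half of them and the mean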;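 note: 0% = cytokine-treated negative control wells and 100% = positive control rescue; higher means more ATP so stronger rescue from cytokine killing; wells of about 40 µL received 100 nL stock; the first replicate is given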
Ecoli rRNA inh – inhibits bacterial ribosomal RNA function over humanized ribosomes; E. coli WT GFP vs humanized-ribosome RFP mutants, fluorescence, 24 h; stronger effect = lower value; DMSO median 0, no signal -100; GFP signal change (wild-type ribosome), % (test concentration not listed); 350,000 tested, 1.6% active; AID 720706;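 active = significant combined selectivity score with lowered wild-type GFP, culture density cut under 30%, mutant RFP and density less affected; inactive = any of these conditions unmet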; note: one replicate is shown; some compounds called inactive have numbers as strong as hits
B2AR ag – human beta-2 adrenergic receptor agonism by FAP. response, % (no concentration beside the values). Am2.2-beta2AR cells, FAP receptor internalization, flow cytometry; reference of the scale not given here. 340,000 tested, 0.43% active. AID 504454. P07550;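 active = response above a set limit, near 3 SD of response in nonfluorescent compounds, cut at about 42% in these data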;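 note: stock transfer was 100 nL into about 11 µL; a reference agonist was the positive control; negative values mostly stem from fluorescent compounds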
Bfl-1 A1 inh – inhibitors of the anti-apoptotic protein A1, read as caspase activation. caspase activation, % (test concentration not listed). MEF A1-2A-BIM cells, Caspase-Glo 3/7 luminescence, 3 h; percent of clofoctol response, vehicle zero. 330,000 tested, 0.066% active;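 active = over half of replicate activation scores above 10%, or exactly half above 10 with the replicate mean above 10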;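 note: wells of about 30 µL received 50 nL stock; many hits fall short of the cut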
Calb FLC – affects C. albicans growth with fluconazole; growth inhibition, % (no concentration beside the values); 300,000 tested, 0.57% active; C. albicans CaCi-2 (fluconazole-resistant clinical isolate) + fluconazole, Alamar Blue growth, 48 h; AID 1979;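 active = most replicates above 75%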;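 note: all wells also contain fluconazole at 8 µg/ml as a sub-toxic cotreatment; 0% = median of DMSO wells and 100% = median of geldanamycin control wells; wells of about 8 µL received 7.5 nL stock; the first replicate is given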
LANA-H2B inh – blocks KSHV LANA binding to histone H2A/H2B. cell-free LANA-H2A/H2B peptide, fluorescence polarization. AID 2629. 320,000 tested, 0.6% active. inhibition, % (test concentration not listed). Q9QR71; in the data active = inhibition mostly above about 10%, no sharp cut-off; inactive = mostly below about 6.7%;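 note: stock transfer was 7.5 nL into about 10 µL; 0% = median of vehicle wells and 100% = median of positive control wells; one replicate is shown; the record names a cut of 25% in any replicate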
Target sequence (Q9QR71 whole entry, looked up): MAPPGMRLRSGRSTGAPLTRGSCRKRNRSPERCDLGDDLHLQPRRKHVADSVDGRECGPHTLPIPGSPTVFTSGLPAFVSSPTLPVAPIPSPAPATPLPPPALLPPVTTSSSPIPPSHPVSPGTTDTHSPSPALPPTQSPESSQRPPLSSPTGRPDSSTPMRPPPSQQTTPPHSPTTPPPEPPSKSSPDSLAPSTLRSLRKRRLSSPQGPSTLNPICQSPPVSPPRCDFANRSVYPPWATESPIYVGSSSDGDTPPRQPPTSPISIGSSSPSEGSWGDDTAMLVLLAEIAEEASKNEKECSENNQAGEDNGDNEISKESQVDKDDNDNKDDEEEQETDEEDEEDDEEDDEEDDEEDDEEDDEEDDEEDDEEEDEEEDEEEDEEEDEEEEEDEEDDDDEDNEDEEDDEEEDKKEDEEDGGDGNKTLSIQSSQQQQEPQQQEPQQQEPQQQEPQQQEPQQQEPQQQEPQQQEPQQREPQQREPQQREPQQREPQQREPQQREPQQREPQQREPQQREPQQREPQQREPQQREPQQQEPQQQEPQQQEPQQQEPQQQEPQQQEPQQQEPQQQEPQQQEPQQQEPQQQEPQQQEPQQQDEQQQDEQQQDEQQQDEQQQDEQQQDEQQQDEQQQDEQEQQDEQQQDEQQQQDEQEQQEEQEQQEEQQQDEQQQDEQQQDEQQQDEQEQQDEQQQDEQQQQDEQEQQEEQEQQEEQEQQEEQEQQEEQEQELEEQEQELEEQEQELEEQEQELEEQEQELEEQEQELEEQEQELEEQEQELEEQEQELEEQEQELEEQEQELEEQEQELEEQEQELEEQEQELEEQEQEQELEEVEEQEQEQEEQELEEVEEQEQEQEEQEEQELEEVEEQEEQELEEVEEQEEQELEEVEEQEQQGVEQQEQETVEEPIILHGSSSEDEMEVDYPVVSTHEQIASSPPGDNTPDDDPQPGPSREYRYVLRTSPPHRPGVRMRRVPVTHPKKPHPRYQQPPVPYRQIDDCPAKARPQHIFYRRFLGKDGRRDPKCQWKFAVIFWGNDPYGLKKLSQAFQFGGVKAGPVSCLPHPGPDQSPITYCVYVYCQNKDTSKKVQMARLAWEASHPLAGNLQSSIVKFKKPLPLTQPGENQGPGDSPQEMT
ALR inh – human ALR oxidase inhibition via reduced H2O2; P55789; purified ALR, DTT oxidation, H2O2 HRP-luminol luminescence; inhibition, % (test concentration not listed); 290,000 tested, 3.8% active; AID 485317;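 active = mean and each replicate at 75% or more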;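 note: stock transfer was 7.5 nL into about 7.5 µL; 0% = neutral wells and 100% = wells with inactivated enzyme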
Ecoli rRNA inh OD600 – second read-out of Ecoli rRNA inh, no call of its own (marks repeat the call); OD600 change, %; measured here: OD600 growth;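 optical density of the mix in the first replicate; 0 = DMSO median and -100 = no signal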
Ecoli rRNA inh RFP – further read-out of Ecoli rRNA inh, marked with its call; RFP signal change, %; measured here: RFP humanized mutant strains;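 first replicate; 0 = DMSO median and -100 = no signal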
Active calls of the source: *; . = no result given; & = joins results of further samples.

smiles	T cruzi inh	Beta apoptosis	Ecoli rRNA inh	Ecoli rRNA inh OD600	Ecoli rRNA inh RFP	B2AR ag	Bfl-1 A1 inh	Calb FLC	LANA-H2B inh	ALR inh
Cc1c(Cc2ccccc2)sc(NC(=O)C(C)(C)C)c1C(N)=O	26	-8	-30*	-7.7*	0.5*	-5	-0.3	-7	-1.5	-9
O=c1oc2ccccc2cc1C1=Nn2c(nnc2-c2cccnc2)SC1	-1	2	.	.	.	-14	0.4	2	3.6	8
CC1(c2nnc(-c3cccc(Cl)c3)o2)CC(c2ccccc2)=NO1 (configuration not stated)	-16	0	-18	-25	-23	2	-0.2	0	-1.2	3
Cc1ccc(C(C)NC(=O)c2ccncc2)c(C)c1 (configuration not stated)	-1	-4	1	9	1.2	8	0.4	3	0.6	0
COc1ccc(S(=O)(=O)N2CCOC2CNC(=O)C(=O)NCCc2ccc(OC)c(OC)c2)cc1 (configuration not stated)	-8	3	.	.	.	-5	-0.4	-12	8.0	-3
COc1cc(S(=O)(=O)N2CCN=C2c2ccccc2)c(OC)cc1Cl	1	-1	0	1	-3.2	4	-0.3	-2	1.1	-10
CCCC(C)n1[nH]c(=O)cc1N (configuration not stated)	.	2	.	.	.	4	1.0	-4	-2.3	-7
CCOc1ccccc1N1CCN(Cc2c(C)n(C)n(-c3ccccc3)c2=O)CC1	-4	1	.	.	.	-2	-0.6	-11	1.1	.
CCOC(=O)c1sc(NC(=O)CCSC)nc1C	1	-1	.	.	.	3	-0.4	0	3.5	42
CN(C#N)c1nc(N2CCOCC2)nc(N2CCOCC2)n1	-8	-5	.	.	.	-10	0.8	-4	41*	17
FC(F)(F)c1ccc(CN2C[C@@H]3C(c4ccc(C(F)(F)F)cc4)C4(c5cccnc5)CC3(C4)[C@H]2c2ccccc2)cc1 (some centres not stated)	35	109*	8	-6	-2.4	-5	-1.5	9	6.5	-14
Cc1ccc(C(=O)O)cc1N1C(=O)CCCC1=O	-16	.	12	10	1.1	1	0.3	19	-2.2	0
Cc1cccc(C)c1OCC(=O)Nn1c(COc2ccccc2)nc2ccccc2c1=O	4	10	.	.	.	5	-0.2	0	-0.9	3
CCOc1cccc(/C=C2/NC(=O)N(CC(=O)Nc3cccc(C)c3)C2=O)c1O	-4	-13	3	6	-2.4	1	0.1	8	-2.2	-13
CC(C)C[C@@]12C(=O)N(c3cccc(Br)c3)C(=O)N1[C@H](c1ccc(F)cc1)[C@@H]1C(=O)N(C3CCCCC3)C(=O)[C@@H]12	38	3	0	14	-7.0	4	0.5	19	-1.1	3
Cc1ccccc1C(O)c1cccnc1 (configuration not stated)	-18	-6	.	.	.	2	-0.4	-7	-1.4	-3
C/[N+]([O-])=C/c1c(OCc2ccc(Cl)cc2Cl)ccc2ccccc12	-13	-2	4	2	2.1	-1	-0.7	-10	0.0	-14
CC1(C)Cc2c(cnn2-c2ccc(F)cc2)C(NC(=O)c2cnccn2)C1 (configuration not stated)	7	-2	4	11	-1.0	9	-0.9	-13	-0.2	.
CC(=O)c1cccc(OCC(=O)N(C)CC(=O)Nc2ccc(F)cc2)c1	5	-2	5	-4	11	.	0.8	-1	17*	-3
N#Cc1c[nH]n2c(=O)c3c(nc12)CCCC3	-6	-12	.	.	.	.	0.7	-23	-1.7	-1
O=C(CCCN1C(=O)/C(=C/c2ccccc2Cl)SC1=S)NCCCN1CCOCC1	8	.	-6	3	0.0	0	-4.7	3	-5.6	-9
Cc1ccc(C)c(Nc2cc(C)nc3ncnn23)c1	-18	-2	-2	2	-5.1	-4	1.2	4	0.0	.
Cc1cc(NC(=O)CSc2nccn2-c2ccc(Cl)cc2)no1	7	-5	.	.	.	-9	0.4	-5	-2.8	99*
COc1cccc2c1C(=O)c1c(O)c3c(c(O)c1C2=O)C[C@@](O)(C(=O)CO)C[C@@H]3O[C@H]1C[C@H](N)[C@H](O)[C@H](C)O1	51	32	.	.	.	-22	0.3	.	25*	-6

Four records picked at random from those above, as already listed:
smiles	T cruzi inh	Beta apoptosis	Ecoli rRNA inh	Ecoli rRNA inh OD600	Ecoli rRNA inh RFP	B2AR ag	Bfl-1 A1 inh	Calb FLC	LANA-H2B inh	ALR inh
CC(=O)c1cccc(OCC(=O)N(C)CC(=O)Nc2ccc(F)cc2)c1	5	-2	5	-4	11	.	0.8	-1	17*	-3
CC1(c2nnc(-c3cccc(Cl)c3)o2)CC(c2ccccc2)=NO1 (configuration not stated)	-16	0	-18	-25	-23	2	-0.2	0	-1.2	3
N#Cc1c[nH]n2c(=O)c3c(nc12)CCCC3	-6	-12	.	.	.	.	0.7	-23	-1.7	-1
Cc1ccc(C(=O)O)cc1N1C(=O)CCCC1=O	-16	.	12	10	1.1	1	0.3	19	-2.2	0

Next section.
smiles	T cruzi inh	Beta apoptosis	Ecoli rRNA inh	Ecoli rRNA inh OD600	Ecoli rRNA inh RFP	B2AR ag	Bfl-1 A1 inh	Calb FLC	LANA-H2B inh	ALR inh
O=C(CSc1nnc(-c2ccncc2)o1)NCc1ccccc1	-13	-8	4	3	-0.9	10	-0.6	-10	2.8	-9
O=C(O)/C=C/c1cn(Cc2ccccc2)nc1-c1ccc(Cl)cc1	29	-9	-11	-4	-3.6	2	0.4	29	-3.1	95*
COc1ccc(C(CNS(=O)(=O)c2ccc(C)cc2)N2CCN(C)CC2)cc1 (configuration not stated)	-8	-5	15	10	3.9	4	0.5	-6	0.8	.
CCn1c(COc2cccc3cccnc23)nnc1SCC(=O)OC	-1	-7	6	12	2.7	-2	-0.5	71	1.9	-4
O=C(NC1CC2CCCC(C1)N2S(=O)(=O)c1ccccc1)c1ccccc1 (configuration not stated)	-1	0	.	.	.	-6	0.1	28	3.5	-6
Cc1cccc(-n2nc(C(=O)Nc3ccccc3)n3c(=O)cc(-c4ccccc4)nc23)c1	35	0	.	.	.	-3	-0.4	-6	1.1	5
FC(F)Oc1ccc(/C=N/NC(=S)Nc2cc(C(F)(F)F)ccc2Cl)cc1	1	6	.	.	.	-2	-0.6	2	2.8	-6
COc1ccc(CCNC(=O)c2nn(C)c3c2CS(=O)(=O)c2ccccc2-3)c(OC)c1	-12	-5	-2	-24	4.6	14	-0.8	-9	0.6	0
CN(NC(=O)COc1ccccc1)C1=NS(=O)(=O)c2ccccc21	-3	0	4	8	-6.4	5	0.5	2	-0.9	-3
COc1ccc(N2CCCC2)c(NC(=O)COc2ccccc2)c1	15	.	-2	-4	3.5	5	0.0	-15	2.0	31
O=C(O)CN(Cc1ccccc1)S(=O)(=O)c1ccc2c(c1)OCCO2	-2	2	8	3	1.3	1	0.4	-3	-0.2	2
O=C(CCC(=O)c1cccs1)NNC(=O)c1ccccc1O	-3	1	-6	-1	-2.7	6	0.4	-22	5.7	2
Cc1onc(-c2ccccc2)c1C(=O)Nc1ccc2c(c1)OCCO2	-5	3	-5	-6	1.4	0	0.2	-3	-1.3	-8
CCn1c(SCC(=O)Nc2ccccc2OC)nc(O)cc1=O	-10	-3	-9	-2	2.4	6	-0.7	-9	0.2	98*
O=C(/C=C/c1cccc([N+](=O)[O-])c1)c1ccco1	-12	-3	17	4	4.3	7	-1.2	40	0.9	7
Cc1ccc(S(=O)(=O)NCc2ccccc2)cc1C(=O)N1CC(C)CC(C)C1 (configuration not stated)	4	.	-7	-27	-0.7	-2	-0.8	5	7.2	-3
C/C(=N\NC(=O)CN1CCN(c2ccc(F)cc2)CC1)c1ccco1	-20	5	6	4	4.3	-2	0.5	0	1.6	48
N#Cc1c2c(c(-c3ccccc3)[nH]c1=O)CCCC2	-27	.	11	6	-3.4	-14	.	-9	-2.1	.
CCOC(=O)c1ccc2c(c1)nc(-c1ccc(F)cc1)c1nccn12	-18	-3	-1	6	1.3	8	-1.2	-10	-0.2	-8
Cn1c(/C(C#N)=C(\O)c2ccc([N+](=O)[O-])cc2)nc2ccccc21	-18	-1	17	13	3.6	-3	-0.2	-1	5.7	-4
O=C(O)CCC(=O)Nc1nc2nccc(-c3ccccc3)n2n1	-2	-1	7	4	-6.4	-9	0.5	-1	3.8	-15
COC(=O)C1=C(C)N(CC2CC2)C(=O)N[C@H]1c1ccc(Br)cc1	.	0	-12	-17	-7.6	.	0.2	.	1.6	5
O=C(NNc1ncnc2c1cnn2-c1ccc(F)cc1)c1cccs1	-11	-10	14	12	0.1	0	0.0	-3	8.9	6
COc1ccc(NC(=O)CS(=O)CC(=O)Nc2ccc(-n3cnnn3)c(C)c2)cc1 (configuration not stated)	-7	.	.	.	.	-1	-0.6	-6	-0.3	30
CC(C)(C)n1nc2c(c1NC(=O)c1ccc(Cl)c([N+](=O)[O-])c1)CS(=O)(=O)C2	8	1	0	10	-0.8	19	-0.6	0	1.1	-7
C[C@H](CO)N1C[C@H](C)[C@@H](CN(C)S(=O)(=O)c2cccs2)Oc2ccc(NS(=O)(=O)c3ccccc3)cc2CC1=O	.	2	-1&-5	0&-6	-0.9&3.0	3	0.6	.	1.3	.
N#Cc1c(SCC(=O)Nc2nccs2)sc2c(O)cc(=O)[nH]c12	5	-1	-2	11	11	0	0.3	-2	2.7	99*
O=c1c2ccccc2nc2n1CC/C2=C\N1CCN(c2ccc([N+](=O)[O-])cc2)CC1	19	-1	8	1	1.5	28	-1.0	8	3.6	.
CCOC(=O)C(=O)NCC(c1cccs1)S(=O)(=O)c1ccc(C)cc1 (configuration not stated)	-2	-4	2	10	1.5	2	0.3	2	5.0	3
Cc1ccc(CN2CC(C(=O)Nc3ncccc3C)CC2=O)cc1 (configuration not stated)	9	-3	2	1	4.1	-5	-0.5	-1	-4.1	7
Cc1ccc(S(=O)(=O)NCC(=O)N(CC(=O)NCC2CCCO2)Cc2ccccc2)cc1 (configuration not stated)	6	-2	.	.	.	-3	0.2	9	5.0	.
CCc1ccc(C(=O)Nc2ccc(OC)c(S(=O)(=O)N3CCOCC3)c2)cc1	-4	-9	-5	-18	-1.5	1	-0.6	20	3.1	-1
O=C1SCC(c2ccc(Cl)cc2Cl)=NN1Cc1nnc(-c2ccccc2)o1	6	-7	.	.	.	-20	-0.9	15	4.5	.
CCOc1ccc(NC(=O)CN(C)C(=O)CN2C(=O)C3CC=CCC3C2=O)cc1OCC (configuration not stated)	17	.	11	12	0.1	0	0.4	-5	3.3	-1
O=C(Cn1nc(C(=O)O)c2ccccc2c1=O)Nc1ccccc1C(F)(F)F	-3	-3	-1	2	-3.1	1	0.6	-10	0.1	1

Screening results deposited in PubChem BioAssay by several laboratories.

These rows are one share of the data. The share of hits here may be higher or lower than overall.
